# Compound activity deposited in PubChem by several laboratories.
# UCH37 DUB inh – inhibitors of human deubiquitinating enzyme UCH37. Q9Y5K5. purified proteasome/UCH37, Ub-AMC cleavage fluorescence. inhibition, % (concentration not given with the values). 330,000 tested, 0.33% active. AID 588478;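 active = mean of two replicates above 20%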;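 also: 0% = compound-free wells with enzyme and 100% = wells lacking proteasome; stock transfer was 100 nL into about 20 µL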
#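 system = Proteasome-associated human UCH37 deubiquitinase | amount = 0.15 nM proteasome as dispensed | medium = pH 7.4 Tris-HCl (50 mM) with ovalbumin, ATP-MgCl2, DTT | incubation = 30 min preincubation with enzyme, 25 min cleavage at room temperature | detection = AMC fluorescence 355/460 nm | read-out basis = percent inhibition | controls = no-proteasome and no-compound wells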
# FGF22 binding – shifts melting point of recombinant human FGF22; calls only at 9.99 µM; AID 651658; recombinant FGF22 thermal shift, SYPRO orange fluorescence; percent of sucrose octasulfate shift, DMSO zero; 340,000 tested, 1.5% active; Q9HCT0;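 active = melting point raised past a set limit in the mean and every replicate; inconclusive = no clear call; three in four hits are not shown here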
# Target sequence (Q9HCT0 whole entry, looked up): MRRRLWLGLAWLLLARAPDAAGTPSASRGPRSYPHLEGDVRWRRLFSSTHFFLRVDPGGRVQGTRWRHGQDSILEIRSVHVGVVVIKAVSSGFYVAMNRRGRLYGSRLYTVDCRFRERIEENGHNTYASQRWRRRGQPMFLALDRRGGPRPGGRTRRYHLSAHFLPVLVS
# Ecoli rRNA inh – selective bacterial rRNA inhibition in E. coli. E. coli WT GFP vs humanized-ribosome RFP mutants, fluorescence, 24 h; hits give low values; DMSO median 0, no signal -100. GFP signal change (wild-type ribosome), % (test concentration not listed). 350,000 tested, 1.6% active;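 active = significant combined selectivity score with lowered wild-type GFP, culture density cut under 30%, mutant RFP and density less affected; inactive = any of these conditions unmet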; also: one replicate is shown; some compounds called inactive have numbers as strong as hits
# A1 inh – inhibitors of the anti-apoptotic protein A1, read as caspase activation. 330,000 tested, 0.066% active. caspase activation, % (concentration not given with the values). AID 2462. MEF A1-2A-BIM cells, Caspase-Glo 3/7 luminescence, 3 h; percent of clofoctol response, vehicle zero;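 active = over half of replicate activation scores above 10%, or exactly half above 10 with the replicate mean above 10; inconclusive = replicate mean below 10 yet half the replicates above 10; inactive = over half of replicates below 10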;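 also: wells of about 30 µL received 50 nL stock; many hits fall short of the cut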
# MLL AF4-AF9 inh – inhibitors of human MLL-AF4/AF9 interaction; AlphaScreen, biotin-AF4 peptide binding to FLAG-AF9; P42568; 350,000 tested, 0.47% active; AID 651704; inhibition, % at 10 µM;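 active = every replicate reaching a set inhibition limit, whatever the replicate mean, cut at about 25% in these data; inconclusive = mean inhibition reaches that limit but some replicates miss it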;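 also: 0% = plate neutral control median and 100% = total signal loss; the record names both 10 and 1 µM as test concentration; the first replicate is given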
# Target sequence (P42568 whole entry, looked up): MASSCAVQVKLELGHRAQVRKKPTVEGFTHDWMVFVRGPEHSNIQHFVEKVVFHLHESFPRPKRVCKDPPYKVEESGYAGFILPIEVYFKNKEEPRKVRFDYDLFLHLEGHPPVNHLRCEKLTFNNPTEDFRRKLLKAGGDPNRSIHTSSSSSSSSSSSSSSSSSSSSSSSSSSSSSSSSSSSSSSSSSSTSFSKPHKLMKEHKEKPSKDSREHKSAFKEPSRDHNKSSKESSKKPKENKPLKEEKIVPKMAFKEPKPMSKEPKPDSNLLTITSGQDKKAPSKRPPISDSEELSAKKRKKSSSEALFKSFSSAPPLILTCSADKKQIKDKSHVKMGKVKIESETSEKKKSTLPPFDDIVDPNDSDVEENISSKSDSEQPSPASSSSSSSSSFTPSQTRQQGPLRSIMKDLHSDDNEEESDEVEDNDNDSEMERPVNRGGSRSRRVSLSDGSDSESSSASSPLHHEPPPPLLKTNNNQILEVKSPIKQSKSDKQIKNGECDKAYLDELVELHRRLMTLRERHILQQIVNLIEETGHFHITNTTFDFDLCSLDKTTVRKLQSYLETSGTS
# T cruzi repl – T. cruzi replication inhibition. T. cruzi beta-gal in NIH3T3, luminescence, 90 h. inhibition, % (test concentration not listed). 300,000 tested, 1.4% active. AID 1885;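 active = mean inhibition across valid replicates above about 55%, limit read from the data; inconclusive = mean below that limit but half or more replicates reach it; inactive = mean below it, under half of replicates reach it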;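 also: signal also drops with host cell toxicity which is not excluded here; 0% = plate median of DMSO wells and 100% = zero luminescence signal; higher percent means less beta-gal luminescence so fewer parasites; stock transfer was 50 nL into about 50 µL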
# E coli growth – inhibitors of Escherichia coli growth; AID 1053175; OD600, 23 h; hits give low values; OD600 absorbance (concentration not given with the values); 330,000 tested, 0.21% active;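 active = OD600 absorbance below the run mean of sample wells minus 3.6 SD, in any replicate, cut at about 0.56 in these data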;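 also: stock transfer was 300 nL into about 60 µL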
# Beta apoptosis – blocks beta cell apoptosis | INS-1E cytokine-induced death, ATP luminescence, 48 h; percent of positive-control rescue, neutral wells zero | protection from apoptosis, % (concentration not given with the values) | 300,000 tested, 0.8% active | AID 435005;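 active = all replicates at 75% or more, or half of them and the mean; inconclusive = half reach 75% but not the mean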;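 also: 0% = cytokine-treated negative control wells and 100% = positive control rescue; higher means more ATP so stronger rescue from cytokine killing; wells of about 40 µL received 100 nL stock; the first replicate is given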
# Ecoli rRNA inh OD600 – further read-out of Ecoli rRNA inh, marked with its call; OD600 change, %; measured here: OD600 growth;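 optical density of the mix in the first replicate; 0 = DMSO median and -100 = no signal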
# Ecoli rRNA inh RFP – further read-out of Ecoli rRNA inh, marked with its call; RFP signal change, %; measured here: RFP humanized mutant strains;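 first replicate; 0 = DMSO median and -100 = no signal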
# Starred values were filed as active, the others as inactive; i = inactive; ? = inconclusive; nt = no result given.
SMILES,UCH37 DUB inh,FGF22 binding,Ecoli rRNA inh,Ecoli rRNA inh OD600,Ecoli rRNA inh RFP,A1 inh,MLL AF4-AF9 inh,T cruzi repl,E coli growth,Beta apoptosis
COc1ccc(C(=O)OCC(=O)Nc2ccc(OC)c(S(=O)(=O)N3CCCCC3)c2)cc1[N+](=O)[O-],1.7,i,1,4,0.1,nt,0.5,nt,0.62,nt
CC1CC(OCC(O)C[N+]2(C)CCOCC2)CC(C)(C)C1 (centres undefined),2.0,i,12,5,-0.1,0.6,-5.6,-6,0.72,2
COc1ccc(N/C(=N/c2nc(C)cc(C)n2)NC(=O)Nc2ccc(Cl)c(Cl)c2)c(OC)c1,2.4,i,-10,-19,-2.3,4.3,-3.5,18,0.69,-1
COc1ccc(-c2nnnn2C)cc1S(=O)(=O)Nc1ccc(C)cc1C,nt,i,-1,-4,-1.1,0.0,-1.8,-4,nt,2
O=C(CS(=O)(=O)c1ccccc1)N1CCN(c2ccccc2)CC1,5.3,nt,12,7,1.1,0.2,-0.3,-11,0.71,nt
Cc1cc(C)c(NC(=O)Cn2c([N+](=O)[O-])cnc2C)c(C)c1,6.4,i,6,8,0.5,-0.2,-2.4,-12,0.69,-7
COC(=O)c1ccc(NC(=S)NC(=O)c2c(-c3ccccc3)noc2C)cc1,2.3,i,2,-3,2.2,0.8,-8.3,-3,0.61,-10
Oc1ccc(Cn2ccnc2)c2cccnc12,3.9,nt,-13,3,-8.4,0.6,?,25,0.74,-3
CC(=O)OCC12COC3c4ccccc4OC(C)(CC1C)C3C2C (centres undefined),1.3,i,-18,-9,-1.2,-0.6,-0.5,1,0.71,2
O=C(CSC1=NS(=O)(=O)c2cc(Cl)ccc2N1)Nc1ccccc1F,0.4,nt,-8,-11,0.2,0.1,-1.5,-2,0.66,1
CCCCN(C)CCC(=O)Nc1ccc(F)c(F)c1,0.0,nt,nt,nt,nt,-0.3,nt,0,0.72,-2
Cc1ccc(CNC(=O)C2CNc3cc(C)ccc3O2)cc1 (centres undefined),2.8,nt,nt,nt,nt,-0.5,nt,-6,0.67,-4
O=C(NCc1nnc(SCc2ccccc2)n1-c1ccccc1)C12CC3CC(CC(C3)C1)C2,nt,i,-31*,12*,2.7*,0.6,-72,41,nt,-7
CCCOc1ccc(C(=O)Nc2ccc3c(c2)OCO3)cc1,-1.4,i,1,10,-1.0,-6.8,-3.3,2,0.7,5
Cc1cccc2c1NC(=O)C21OCC(CO)([N+](=O)[O-])CO1 (centres undefined),1.8,i,1,9,1.2,0.1,0.5,-4,0.6,2

# 13 consecutive records out of the list so far, for reference:
SMILES,UCH37 DUB inh,FGF22 binding,Ecoli rRNA inh,Ecoli rRNA inh OD600,Ecoli rRNA inh RFP,A1 inh,MLL AF4-AF9 inh,T cruzi repl,E coli growth,Beta apoptosis
COc1ccc(N/C(=N/c2nc(C)cc(C)n2)NC(=O)Nc2ccc(Cl)c(Cl)c2)c(OC)c1,2.4,i,-10,-19,-2.3,4.3,-3.5,18,0.69,-1
COc1ccc(-c2nnnn2C)cc1S(=O)(=O)Nc1ccc(C)cc1C,nt,i,-1,-4,-1.1,0.0,-1.8,-4,nt,2
O=C(CS(=O)(=O)c1ccccc1)N1CCN(c2ccccc2)CC1,5.3,nt,12,7,1.1,0.2,-0.3,-11,0.71,nt
Cc1cc(C)c(NC(=O)Cn2c([N+](=O)[O-])cnc2C)c(C)c1,6.4,i,6,8,0.5,-0.2,-2.4,-12,0.69,-7
COC(=O)c1ccc(NC(=S)NC(=O)c2c(-c3ccccc3)noc2C)cc1,2.3,i,2,-3,2.2,0.8,-8.3,-3,0.61,-10
Oc1ccc(Cn2ccnc2)c2cccnc12,3.9,nt,-13,3,-8.4,0.6,?,25,0.74,-3
CC(=O)OCC12COC3c4ccccc4OC(C)(CC1C)C3C2C (centres undefined),1.3,i,-18,-9,-1.2,-0.6,-0.5,1,0.71,2
O=C(CSC1=NS(=O)(=O)c2cc(Cl)ccc2N1)Nc1ccccc1F,0.4,nt,-8,-11,0.2,0.1,-1.5,-2,0.66,1
CCCCN(C)CCC(=O)Nc1ccc(F)c(F)c1,0.0,nt,nt,nt,nt,-0.3,nt,0,0.72,-2
Cc1ccc(CNC(=O)C2CNc3cc(C)ccc3O2)cc1 (centres undefined),2.8,nt,nt,nt,nt,-0.5,nt,-6,0.67,-4
O=C(NCc1nnc(SCc2ccccc2)n1-c1ccccc1)C12CC3CC(CC(C3)C1)C2,nt,i,-31*,12*,2.7*,0.6,-72,41,nt,-7
CCCOc1ccc(C(=O)Nc2ccc3c(c2)OCO3)cc1,-1.4,i,1,10,-1.0,-6.8,-3.3,2,0.7,5
Cc1cccc2c1NC(=O)C21OCC(CO)([N+](=O)[O-])CO1 (centres undefined),1.8,i,1,9,1.2,0.1,0.5,-4,0.6,2

# (cont.)
SMILES,UCH37 DUB inh,FGF22 binding,Ecoli rRNA inh,Ecoli rRNA inh OD600,Ecoli rRNA inh RFP,A1 inh,MLL AF4-AF9 inh,T cruzi repl,E coli growth,Beta apoptosis
CCOCc1cnc(C)nc1NCC(=O)c1c(C)[nH]c2ccccc12,4.5,nt,nt,nt,nt,0.5,nt,35,0.76,-2
O=C(NCc1cccnc1)c1ccc(Cl)c(S(=O)(=O)N2CCCCCC2)c1,3.9,i,-31,-32,-4.8,0.0,1.0,0,0.71,-5
NC(=S)N=Nc1c(O)[nH]c2cc(F)c(F)cc12,11,nt,nt,nt,nt,-0.1,nt,-12,0.62,6
COc1ccc(S(=O)(=O)n2nc(OC(=O)c3cccs3)cc2N)cc1,1.9,nt,nt,nt,nt,0.6,nt,-13,0.79,-7
COc1ccc(C(=O)Nc2ccc(CN3CCS(=O)(=O)CC3)cc2)cc1,5.5,i,10,8,3.6,-0.2,-0.9,13,0.65,-6
COc1ccc(C(CC(=O)NC(C)c2ccc(-c3ccccc3)cc2)NC(C)=O)cc1 (centres undefined),5.6,i,2,8,0.3,-0.7,-4.4,-3,0.7,0
COc1cc2c(C#Cc3cccnc3)c(-c3ccsc3)oc(=O)c2cc1OC,1.4,i,8,8,-4.7,0.2,1.7,nt,0.81,7
COC(=O)C1(C(F)(F)F)N=C(C(F)(F)F)Nc2ccc(Cl)cc21 (centres undefined),-1.9,nt,nt,nt,nt,-0.5,nt,-7,0.66,-7
O=C(Cn1cnc([N+](=O)[O-])n1)NCc1ccccc1,3.9,nt,nt,nt,nt,-0.3,nt,79*,0.76,4
O=C(c1cnn(-c2ccc(Cl)cc2)c1)c1ccccc1O,0.6,nt,2,0,0.7,0.4,1.7,2,0.69,-1
C=CCOc1ccc(/C=C\c2nc(O)c([N+](=O)[O-])c(=O)[nH]2)cc1OCC,11,i,7,6,-1.8,0.6,1.4,-19,0.68,-7
Cc1ccc(NC(=O)NC(=O)CSc2n[nH]c(N)n2)c(C)c1,3.8,i,-21,-23,-1.6,-0.5,1.4,1,0.66,-11

# An excerpt. The share of hits here may be higher or lower than overall.
